Screens: PubChem, National Center for Advancing Translational Sciences (NCATS)
FEN1 inhibitor: qHTS Assay for the Inhibitors of Human Flap endonuclease 1 (FEN1). P39748. Recombinant FEN1 flap cleavage, fluorescence, 15 min. Potency, µM (top dose mostly 114 µM), inactives show at the highest dose activity change, negative = inhibition, usual class: inhibitors. hit rate 0.35% among 390,000. AID 588795, 2011; further: nearly all actives have a fitted effect of over 65% in size
Target sequence (P39748 whole entry, looked up): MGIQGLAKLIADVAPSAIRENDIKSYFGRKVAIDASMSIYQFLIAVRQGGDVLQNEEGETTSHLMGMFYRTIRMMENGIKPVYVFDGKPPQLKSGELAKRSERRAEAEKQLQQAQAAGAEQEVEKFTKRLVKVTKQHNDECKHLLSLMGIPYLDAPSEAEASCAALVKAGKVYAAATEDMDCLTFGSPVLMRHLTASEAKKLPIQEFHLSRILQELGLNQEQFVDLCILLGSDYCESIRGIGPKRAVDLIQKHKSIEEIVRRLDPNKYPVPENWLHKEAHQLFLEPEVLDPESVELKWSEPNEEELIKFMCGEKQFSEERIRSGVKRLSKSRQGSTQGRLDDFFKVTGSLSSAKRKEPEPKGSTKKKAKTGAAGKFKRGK
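Quantitative HTS format: each compound was titrated, incubated with 10 nM nuclease for 15 min at room temperature, then challenged with flap substrate at 50 nM final. Signal change over 15 min gave concentration–effect curves.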
N370S GC: qHTS Assay for Inhibitors and Activators of N370S glucocerebrosidase as a Potential Chaperone Treatment of Gaucher Disease; Lysosomal acid glucosylceramidase (Homo sapiens), P04062; Potency, µM (titrated, usually from 59.4 µM), for inactives: top-dose activity change, negative = inhibition, most hits filed as inhibitors; hit rate 0.092% among 330,000; AID 2101, 2009; N370S GC spleen homogenate, 4MU-glucoside fluorescence;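 further: 0% = full enzyme activity and -100% = no enzyme basal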
Numbers without * were called inactive; ? = inconclusive; · = not tested or not shown; & = joins results of further samples; [ ] = remark or other dose. The call rests on the fitted dose curve; in most records, active means well fitted curve in the direction sought with a large enough effect; inconclusive means small, poorly fitted or top-dose-only effect, or another doubt; inactive means no such curve, though single readings can be large; an effect the other way counts as inactive or inconclusive. Unless noted, on the % scale 0 is the no-effect control and ±100 the full control effect; potency means the concentration at half of the fitted maximal effect.

SMILES	FEN1 inhibitor	N370S GC
CC(C)(C)c1ccc(C(=O)NCCCNC(=O)c2cccnc2)cc1	-6%	-3%
Cc1cc2ccccc2n2c(SCC(=O)N3CCOCC3)nnc12	12%	-22%
Cc1ccc(NC(=S)NNC(=O)Cn2nc([N+](=O)[O-])cc2C)cc1	-12%	2%
CCOC(=O)CSc1cc(=O)n(CC)c2ccccc12	-6%	-12%
O=C(Nc1ccc(OCc2cc(=O)n3c4c(sc3n2)CCCC4)cc1)c1ccccc1	-9%	·
O=S(=O)(NCc1ccco1)c1ccc2c(c1)Cc1ccccc1-2	-20%	0%
COCCNC(=O)c1nn(-c2ccc(C)cc2)c(=O)c2c1c1ccccc1n2C	10%	·
COCCn1nnnc1CN1CCN(c2cccc(C(F)(F)F)c2)CC1	14%	-1%
COc1cc(C(=O)OCC(=O)Nc2cccc(S(=O)(=O)N3CCOCC3)c2)ccc1OCC(C)C	-12%	-4%
Cc1ccc(S(=O)(=O)N2[C@@H](c3cccc(Cl)c3)C(C(=O)O)=CC[C@H]2c2cccs2)cc1	16%	-1%
COc1cc(NC(=O)c2ccc3c(c2)OCCO3)ccc1NC(=O)c1cccs1	-13%	3%
COc1ccc(-c2csc(NC(=O)CSc3n[nH]c(C)n3)n2)cc1	-1%	-2%
Cc1ccc(C(=O)Oc2cc(C)n(C)c(=O)c2)cc1	9%	2%
Cc1cc2nc(-c3ccc(SCc4ccccn4)nc3)[nH]c2cc1C	-19%	-9%
CO/N=C/NC(=O)C1=NOC(CNc2ncc(C(F)(F)F)cc2Cl)C1 (centres undefined)	-6%	4%
COC(=O)CN(C(=S)Nc1ccccc1)C1CC(=O)N(c2ccc(OC)cc2)C1=O (centres undefined)	-6%	22%
CCOC(=O)[C@H]1[C@H]2COc3ccc(C)cc3[C@@H]2N2C(=O)CN(CC3CCCO3)C(=O)[C@@]12C (some centres undefined)	7%	·
CC(C)(/C=N/O)/[N+]([O-])=C/c1ccccc1C(F)(F)F	3%	0%
CCOc1ccc(CN2CCN(C(=O)c3ccccc3)CC2)cc1	18%	-17%
CC(C)(C)OC(=O)NCCc1nnc(SCc2cccc(Cl)c2)o1	-10%	19%
Cc1ccc(C(=O)NCCS(=O)(=O)N2CCN(c3ccccc3F)CC2)cc1[N+](=O)[O-]	-21%	-18%
O=C(CN1CCN(c2ncccn2)CC1)NCCC1=CCCCC1	3%	8%
COC(=O)[C@@]1(Cc2ccc(OC)cc2)[C@H]2c3cc(C(=O)N(C)C)n(CCO)c3C[C@H]2CN1C(=O)c1ccccc1	·	-5%
O=C(CCCNS(=O)(=O)c1cccc2nsnc12)NC1CCCCC1	-3%	4%
Cc1nc(N2CCC(C)CC2)c2c(C)c(C(=O)Nc3ccc(C)c(F)c3)sc2n1	4%	5%
COc1cccc2c1C(=O)c1c(O)c3c(c(O)c1C2=O)C[C@@](O)(C(=O)CO)C[C@@H]3O[C@@H]1C[C@H](N)[C@H](O)[C@H](C)O1	·	5%
CCCCCCC1CC(CSC(=N)N)OC1=O (centres undefined)	-4%	-4%[12.8 µM]
CCC(=O)Nc1c(C(=O)Nc2ccc3c(c2)OCCO3)oc2ccccc12	-14%	-7%
Cc1ccc(N2C(=O)C(F)(F)C2c2ccccc2)cc1 (centres undefined)	-23%	15%
CCC(C)(C(=O)NC1CCCC1)N(CC1CCCO1)C(=O)c1ccc2c(c1)OCO2 (centres undefined)	-1%	1%
COc1ccc2c(c1)CC/C(=C\c1ccc(C)o1)C2=O	2%	8%
O=S(=O)(NCc1csc(-c2cccnc2)n1)c1ccc(Cl)s1	15%	16%
CN(C(=S)Oc1ccc(C(=O)Nc2ccccc2)cc1)c1ccccc1	-17%	4%
C#CCn1c(=NC(=O)c2ccc3c(c2)OCCO3)sc2cc(OC)c(OC)cc21	-6%	·
CC[N+](CC)(CC)C/C=C/CN1CCCCC1	-5%	5%
Cc1cccc(C)c1NS(=O)(=O)c1ccc(NC(=O)c2ccc(Cl)c([N+](=O)[O-])c2)cc1	-15%	-7%
Cc1ccc(NC(=O)N2CCC(C(=O)Nc3ccc(C)cc3C)CC2)cc1	-5%	-4%
O=C(Nc1ccon1)Nc1cc(Cl)ccc1Cl	0%	-7%
CN(Cc1ccccc1Cl)C(=O)CCNC(=O)c1ccco1	3%	-2%
Cc1cc(C)n(-c2ccc(C(=O)NC3CCCCC3)cc2)n1	4%	-1%
O=C(Nc1nnc(-c2cc(Cl)ccc2Cl)o1)C1=COCCO1	8%	-2%
Cc1ccc(NC(=O)CCC(=O)c2cc(C)sc2C)nc1	12%	-11%
Cc1cn[nH]c1	-3%	-2%&-1%
O=C(C1CCCCCC1)N1CC[C@@H](N2CCC(O)CC2)[C@H](O)C1	9%	-8%
COCCNc1ncnc2onc(-c3ccc(F)cc3)c12	9%	·
CSc1n[nH]c(=O)n1C1CCCCC1	23%	3%
Cc1ccc(Cn2nc(C)c(NC(=O)CCCn3nc([N+](=O)[O-])c(Cl)c3C)c2C)cc1	0%	-9%
CC(C)(C)c1ccc(NC(=O)C2=CN3CCS(=O)(=O)N=C3C=C2)cc1	16%	·
COc1ccc(C(=O)/C=C/c2cccc(OCc3ccccc3)c2)cc1CSCC(=O)O	-18%	?
O=C(CC(c1ccccc1)c1ccccc1)OCn1nnc2ccccc2c1=O	-22%	6%
O=C(CCCN1C(=O)c2cccc3cccc(c23)C1=O)N1CCc2ccccc2C1	?	-4%
CCOC(=O)C(CCCCCOc1ccccc1[N+](=O)[O-])C(=O)OCC	-19%	1%
O=C(CCn1c(=O)oc2ccccc21)NCCN1CCc2ccccc2C1	3%	-6%
COc1ccc(C(=O)NC(C)c2nc3ccccc3n2C)cc1OC (centres undefined)	0%	0%
Cc1ccc(-c2cc(C(=O)Nc3cnn(C45CC6CC(CC(C6)C4)C5)c3)no2)cc1	-4%	7%
CC(C)(C)c1cc2cccnc2n1Cc1cccc(Cl)c1	-10%	-24%
COc1ccc(/C=C/C(=O)N2CCCC2)cc1OC	18%	-9%
CCn1cc(C(=O)O)c(=O)c2cc(F)c(N3CCN(C(=S)NC(=O)c4ccccc4C)CC3)cc21	-1%	-16%
O=C(/C=C/c1ccc(S(=O)(=O)N2CCOCC2)cc1)N(CCO)Cc1ccccc1	-5%	-3%
O=C(C1=C(O)C(=O)N(CCCn2ccnc2)C1c1cccc(Br)c1)c1ccco1 (centres undefined)	-15%	-3%
Going on with the list:
SMILES	FEN1 inhibitor	N370S GC
Cn1c(-c2nonc2NC(=O)c2ccc(C(C)(C)C)cc2)nc2ccccc21	·	-7%
O=C1NN=C(c2ccc(Cl)cc2)CC1c1cccc(Br)c1 (centres undefined)	-17%	3%
COc1ccc(NS(=O)(=O)c2ccc(NC(C)=O)cc2)c(OC)c1	2%	-17%
O=C(c1ccccc1)C(C(=O)N1CCc2ccccc2C1)n1ccccc1=O (centres undefined)	-2%	18%
O=C(Cn1ccc(C(F)(F)F)n1)N/N=C/c1cccs1	-2%	17%
COc1ccc2oc(C(=O)NC(C)c3ccccn3)c(C)c2c1 (centres undefined)	7%	·
Cc1nc2cc(C(F)(F)F)ccc2n1C1CCN(CC(=O)N2CCOCC2)CC1	-9%	-2%
CCOC(=O)C(Cc1cc(C(C)=O)ccc1OCC)C(=O)OCC	0%	7%
O=C(CN1CCN(c2ccccc2F)CC1)Nc1ccc2c(c1)CCC2	-11%	1%
CCOC(=O)C1CCN(C(=O)C2CCC(=O)N(CC3CCCCC3)C2)CC1 (centres undefined)	1%	-1%
Cc1cc(NC(=O)COc2ccc3ccccc3c2Br)no1	20%	·
Cc1ccc(S(=O)(=O)NC(=O)COc2ccccc2C)cc1	-6%	2%
CCOc1ccc2c(C)cc(=O)oc2c1OCC	-1%	-3%
CN(C)C1=NCCN1CCCCc1ccccc1	13%	-4%
CN(C)CCCSC(=N)N	·	18%

Gathered by group: those above containing a nitro group on carbon (5)
SMILES	FEN1 inhibitor	N370S GC
Cc1ccc(NC(=S)NNC(=O)Cn2nc([N+](=O)[O-])cc2C)cc1	-12%	2%
Cc1ccc(C(=O)NCCS(=O)(=O)N2CCN(c3ccccc3F)CC2)cc1[N+](=O)[O-]	-21%	-18%
Cc1cccc(C)c1NS(=O)(=O)c1ccc(NC(=O)c2ccc(Cl)c([N+](=O)[O-])c2)cc1	-15%	-7%
Cc1ccc(Cn2nc(C)c(NC(=O)CCCn3nc([N+](=O)[O-])c(Cl)c3C)c2C)cc1	0%	-9%
CCOC(=O)C(CCCCCOc1ccccc1[N+](=O)[O-])C(=O)OCC	-19%	1%

(next part)
SMILES	FEN1 inhibitor	N370S GC
COc1ccc(OC)c(NC(=O)C(CCSC)NS(=O)(=O)c2cccs2)c1 (centres undefined)	-19%&2%	2%
CCCN(CC(=O)Nc1cc(C)on1)CC(=O)Nc1ccc(F)c(F)c1F	-4%	·
Cc1onc(-c2ccccc2)c1C(=O)N1CCN(C/C=C/c2ccccc2)CC1	1%	-12%
Cc1ccc(NC(=O)CC2Oc3ccc(C)cc3NC2=O)cc1 (centres undefined)	-7%	5%
CCc1cccc(Nc2cc(C)nc3ncnn23)c1	12%	-5%
Cc1ccccc1Oc1ncnc2sccc12	-8%	0%
O=C(c1cccs1)N1CCCC(N2CCN(c3ccc(F)cc3)CC2)C1 (centres undefined)	20%	7%
O=C(Nc1ccc(Nc2ccccc2)cc1)c1ccc(Br)o1	-21%	·
Cn1c(=O)oc2cc(S(=O)(=O)N3CCCC(C(=O)N4CCN(c5ccccc5F)CC4)C3)ccc21 (centres undefined)	22%	·
CCOC(=O)CC[C@H](NC(=O)Cn1cnc2c(SC)nc(N)nc21)C(=O)OCC	-4%	·
Cc1ccc(NC(=O)CSc2nnc(CN3CCOCC3)n2C)cc1C	-4%	-13%
CC[C@]1(C(=O)OC)[C@H]2C(=O)N(C)C(=O)[C@H]2[C@H]2CN=C(SCc3ccc(OC)cc3)N21	15%	·
CCN(CC)NC(=S)Nc1ccccc1	2%	-9%
Cc1cccc(C)c1NC(=O)NC1(C(=O)NCCN2CCOCC2)CCCCC1	8%	-28%
Cc1c(C(=O)OCC2CCCO2)[nH]c2c1C(=O)CC(c1ccc(N(C)C)cc1)C2 (centres undefined)	-23%	9%

Fetched one by one from the entries so far, two records:
SMILES	FEN1 inhibitor	N370S GC
O=C(Nc1ccc(Nc2ccccc2)cc1)c1ccc(Br)o1	-21%	·
Cc1ccc(NC(=O)CSc2nnc(CN3CCOCC3)n2C)cc1C	-4%	-13%

Continuation:
SMILES	FEN1 inhibitor	N370S GC
NS(=O)(=O)c1cccc(NC(=O)CSc2nnc3n2CCCCC3)c1	-6%	·
COc1cccc(C(=O)CN(C(=O)c2ccc(Cl)c(Cl)c2)N2C(=O)c3ccccc3C2=O)c1	4%	9%
O=S(=O)(NC(=NCCc1ccc(Cl)cc1)c1ccccc1Cl)c1cccs1	-12%	-15%
CCOC(CNC(=O)C(=O)Nc1cc2c3c(c1)CCN3C(=O)CC2)OCC	13%	-2%
Cc1onc(-c2ccccc2)c1C(=O)NNC(=O)c1ccccc1O	4%	-23%
O=C(Cn1cnc2scc(-c3cccc([N+](=O)[O-])c3)c2c1=O)NCc1ccco1	-31%	4%
CCOc1cc(/C=N/NC(=O)c2ccccn2)ccc1OC(=O)c1ccc(F)cc1	1%	-5%
CC1(C)C(=O)NCCN1C(=O)CC1C(=O)NCCN1Cc1cccc(C(F)(F)F)c1 (centres undefined)	15%	?
CCn1c(=N)n(CCOc2ccc(OC)cc2)c2ccccc21	-2%	-7%
O=C(CSc1nc(O)c(Cc2ccccc2)c(=O)[nH]1)N1CCOCC1	9%	8%
Cc1ccc2nc(COc3ccccc3NC(=O)c3ccccc3F)cc(=O)n2c1	0%	·
CC(C)COc1ccc(C(=O)OCC(=O)NCc2cccs2)cc1	10%	·
CCOc1ccccc1C1CC(=O)Nc2c1c(=O)n(C)c1ncnn21 (centres undefined)	-7%	·
Fc1ccc(C(c2nnc(-c3ccccc3)o2)N2CCN(c3cccc(Cl)c3)CC2)cc1 (centres undefined)	-6%	·
CCOC(=O)c1[nH]c2ccc(F)cc2c1N=C(C)N(CC)CC	10%	-2%
NC(=O)C1CCN(C(=O)c2cc3ccccn3n2)CC1	25%	2%
CCCNC(=O)N1CCN(c2ncccn2)CC1	3%	5%
CC(=O)c1cc2c(cc1NC(=O)CN(C)S(=O)(=O)c1cccs1)OCO2	-2%	·
CC(C)C(C(=O)Nc1ccc(N2CCOCC2)cc1)N1C(=O)c2ccccc2C1=O (centres undefined)	-4%	17%
Cc1sc2ncnc(N(C)Cc3ccco3)c2c1C	-17%	3%
COc1cccc(NC(=O)CC2COc3ccccc3O2)c1 (centres undefined)	-4%	6%
CCN(CC)S(=O)(=O)c1ccc(O)c(C(=O)OCC(=O)Nc2ccc(OC(F)(F)F)cc2)c1	10%	2%
Cc1cc(=O)[nH]c2nnc(SCc3ccccc3F)n12	-15%	·
CCc1ccc(-c2nc(NC(=O)c3ccc(OCC(=O)Nc4ccc(F)cc4)c(OC)c3)sc2C)cc1	0%	4%
O=C(NCc1cccnc1)C(=O)Nc1cc2c3c(c1)CC(=O)N3CCC2	-2%	-1%

As a short view, some entries already given:
SMILES	FEN1 inhibitor	N370S GC
COc1cccc(NC(=O)CC2COc3ccccc3O2)c1 (centres undefined)	-4%	6%
CCN(CC)S(=O)(=O)c1ccc(O)c(C(=O)OCC(=O)Nc2ccc(OC(F)(F)F)cc2)c1	10%	2%
Cc1cc(=O)[nH]c2nnc(SCc3ccccc3F)n12	-15%	·

Not all compounds are listed, and most or all hits are left out here.
